Source: PubChem BioAssay
MLL AF4-AF9 inh – MLL-AF4/AF9 protein interaction inhibition. P42568. AlphaScreen, biotin-AF4 peptide binding to FLAG-AF9. inhibition, % at 10 µM. 350,000 tested, 0.47% active;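 active = every replicate reaching a set inhibition limit, whatever the replicate mean, cut at about 25% in these data; inconclusive = mean inhibition reaches that limit but some replicates miss it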;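 also: 0% = plate neutral control median and 100% = total signal loss; the record names both 10 and 1 µM as test concentration; the first replicate is given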
HNF4A DNA FP – change in binding of human HNF4 alpha to DNA; HNF4a-FITC DNA binding, fluorescence polarization, 1 h; activity change, % at 10 µM; 360,000 tested, 0.3% active; in the data active = activity change above about 30%, passing the limit was not always enough;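 also: controls were the assay level and a saturating level of protein; the project sought stronger binding though the title names inhibitors; some compounds called inactive have numbers as strong as hits; positive values seem to mean higher polarization but the record does not say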
Target sequence (P41235 whole entry, looked up): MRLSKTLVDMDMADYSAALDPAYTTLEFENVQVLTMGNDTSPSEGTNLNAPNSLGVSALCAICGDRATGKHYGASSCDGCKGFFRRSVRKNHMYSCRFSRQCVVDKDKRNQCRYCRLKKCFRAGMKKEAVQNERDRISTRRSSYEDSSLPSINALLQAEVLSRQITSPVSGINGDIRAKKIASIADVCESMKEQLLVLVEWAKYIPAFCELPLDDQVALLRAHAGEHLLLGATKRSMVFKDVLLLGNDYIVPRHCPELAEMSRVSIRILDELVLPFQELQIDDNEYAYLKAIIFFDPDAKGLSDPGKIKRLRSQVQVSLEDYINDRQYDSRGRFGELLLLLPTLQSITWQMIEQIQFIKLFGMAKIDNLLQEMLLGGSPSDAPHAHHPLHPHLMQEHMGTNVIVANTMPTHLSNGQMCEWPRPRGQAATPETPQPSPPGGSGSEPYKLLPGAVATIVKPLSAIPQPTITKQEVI
Vif A3G – inhibitors of Vif binding to APOBEC3G peptide, primary screen, biochemical, TR-FRET, GST-Vif 1-94, biotin-A3G peptide, dose response retest (AID 1117319). TR-FRET GST-Vif / biotin-A3G peptide binding; higher % means a stronger effect; test concentration not given here; strong numbers were not always called active. inhibition, %; hits with a dose series show IC50 in µM. 260,000 tested, 0.57% active;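 active = above the screen mean plus three standard deviations and confirmed in dose response; inconclusive = results disagree or hit not tested in dose response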;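 also: Vif residues 1-94 fused to GST binding biotinylated APOBEC3G peptide 110-148; 0% = full assay without inhibitor and 100% = GST in place of GST-Vif; retest series ran down from 100 µM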
rRNA inh HTS – inhibitors of bacterial rRNA selective over humanized ribosomes | E. coli WT GFP vs humanized-ribosome RFP mutants, fluorescence, 24 h; stronger effect = lower value; DMSO median 0, no signal -100 | GFP signal change (wild-type ribosome), % (no concentration beside the values) | 350,000 tested, 1.6% active | AID 720706;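 active = significant combined selectivity score with lowered wild-type GFP, culture density cut under 30%, mutant RFP and density less affected; inactive = any of these conditions unmet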; also: one replicate is shown; some compounds called inactive have numbers as strong as hits
E coli growth – inhibitors of Escherichia coli growth. OD600, 23 h; stronger effect = lower value. AID 1053175. 330,000 tested, 0.21% active. OD600 absorbance (no concentration beside the values);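 active = OD600 absorbance below the run mean of sample wells minus 3.6 SD, in any replicate, cut at about 0.56 in these data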;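 also: stock transfer was 300 nL into about 60 µL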
ALR inh – blocks human ALR sulfhydryl oxidase activity. 290,000 tested, 3.8% active. purified ALR, DTT oxidation, H2O2 HRP-luminol luminescence. P55789. AID 485317. inhibition, % (concentration not given with the values);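 active = mean and each replicate at 75% or more; inconclusive = only one of the two met; inactive = neither met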;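 also: stock transfer was 7.5 nL into about 7.5 µL; 0% = neutral wells and 100% = wells with inactivated enzyme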
Target sequence (P55789 whole entry, looked up): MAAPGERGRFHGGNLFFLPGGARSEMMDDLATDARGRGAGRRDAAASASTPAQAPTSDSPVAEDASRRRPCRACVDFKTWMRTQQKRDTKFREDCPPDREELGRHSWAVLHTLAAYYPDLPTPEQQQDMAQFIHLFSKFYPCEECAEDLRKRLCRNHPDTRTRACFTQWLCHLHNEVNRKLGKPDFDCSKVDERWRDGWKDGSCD
FGF22 binding – binders of recombinant human FGF22 by thermal shift; Q9HCT0; SYPRO orange fluorescence; percent of sucrose octasulfate shift, DMSO zero; calls only at 9.99 µM; 340,000 tested, 1.5% active; AID 651658;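 active = melting point raised past a set limit in the mean and every replicate; inconclusive = no clear call; three in four hits are not shown here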
Target sequence (Q9HCT0 whole entry, looked up): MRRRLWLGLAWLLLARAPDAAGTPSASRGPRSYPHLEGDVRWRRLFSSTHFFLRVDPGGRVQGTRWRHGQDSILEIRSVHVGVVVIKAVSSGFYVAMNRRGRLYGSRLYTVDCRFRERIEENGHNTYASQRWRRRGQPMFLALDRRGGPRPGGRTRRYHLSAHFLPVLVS
rRNA inh HTS OD600 – also measured in rRNA inh HTS; calls as there; OD600 change, %; measured here: OD600 growth;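 optical density of the mix in the first replicate; 0 = DMSO median and -100 = no signal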
rRNA inh HTS RFP – further read-out of rRNA inh HTS, marked with its call; RFP signal change, %; measured here: RFP humanized mutant strains;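 first replicate; 0 = DMSO median and -100 = no signal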
Active calls of the source: *; i = inactive; ? = inconclusive; . = no result given; + = active, no number; & = joins results of further samples. This is a subset; rates above refer to the full screens.

SMILES	MLL AF4-AF9 inh	HNF4A DNA FP	Vif A3G	rRNA inh HTS	rRNA inh HTS OD600	rRNA inh HTS RFP	E coli growth	ALR inh	FGF22 binding
Cn1c(C(=O)N2CCCC(C(=O)N3CCN(C(=O)c4ccco4)CC3)C2)cc2sccc21 (centres undefined)	-3.8	1.5	3%	0	-5	0.3	0.7	1	i
CO[C@H]1CN(C)C(=O)c2ccc(NC(=O)c3nc4ccccc4s3)cc2OC[C@H](C)NC[C@@H]1C	5.0	.	.	-7	-8	-0.7	.	.	i
CCC(C)(C)c1nnc(NC(=O)C2CCN(C(=O)c3ccco3)CC2)s1	-5.6	3.9	.	-4	-5	-2.4	0.67	-3	i
COCC(=O)N(C)C[C@H]1Oc2cc(C#CC(C)(C)O)ccc2S(=O)(=O)N([C@H](C)CO)C[C@@H]1C	-0.2	.	.	2	3	-3.6	.	.	i
O=C(c1ccccc1)N1N=C(C(F)(F)F)CC1(O)c1ccc(F)cc1 (centres undefined)	-1.7	1.4	.	-13	-27	-11	0.63	-1	i
O=C(C[C@@H]1CC[C@@H]2[C@H](COC[C@H](O)CN2C(=O)c2ccccc2F)O1)NCc1ccc(-c2ccccc2)cc1	0.8	.	.	-13	-40	5.3	.	.	i
C[C@@H]1CN([C@H](C)CO)C(=O)c2c(c3ccccc3n2C)-c2ccccc2CO[C@H]1CN(C)C(=O)CCC(F)(F)F	-2.1	-2.5	-8%	-2&-2	-1&-2	-5.1&1.5	.	.	i
Cc1nn(C)cc1CNC(=O)/C=C/c1cnn(C)c1	.	1.2	-4%	.	.	.	0.65	.	.
Cc1ccc(C2(C)NC(=O)N(CC(=O)Nc3cc(S(=O)(=O)N4CCOCC4)ccc3C)C2=O)cc1 (centres undefined)	0.0	2.2	5%	-1	2	-1.4	0.68	.	i
COc1ccc(S(=O)(=O)N2CCCCC2)cc1NC(=O)CCc1nc2ccccc2c(=O)[nH]1	0.1	1.2	2%	-5	1	2.5	0.66	-7	i
CCOC(=O)C1CCN(Cc2nc(-c3ccc(OC)c(OC)c3)no2)CC1	.	-2.7	1%	.	.	.	0.76	-7	.
CCOC(=O)Cn1nnnc1C(C(C)C)N(Cc1cccs1)Cc1cc2cc(C)ccc2[nH]c1=O (centres undefined)	.	1.6	2%	.	.	.	0.73	-31	.
CCOC(=O)C(Cc1ccccc1)NC(=O)Cn1nnc(-c2ccc(SC)cc2)n1 (centres undefined)	.	3.5	-7%	.	.	.	0.75	-15	.
CC(=O)C1=C(O)C(=O)N(c2ccc(Br)cn2)C1c1cccc([N+](=O)[O-])c1 (centres undefined)	-0.5	-0.8	2%	0	-1	-0.1	0.64	89*	i
C[C@H](CO)N1C[C@H](C)[C@@H](CN(C)C(=O)Nc2ccc3c(c2)OCO3)Oc2ccc(NC(=O)Nc3ccc(F)cc3)cc2CC1=O	2.1	.	.	-2	-7	-0.5	.	.	i
C[C@H](CO)N1C[C@H](C)[C@H](CN(C)C(=O)Nc2ccc3c(c2)OCO3)Oc2cc(C3=CCCCC3)ccc2S1(=O)=O	9.3	.	.	-2	-5	11	.	.	+
CCO[C@@H]1OC(C(N)=O)=C[C@H](c2ccc3c(c2)OCO3)[C@H]1CCCO	-6.2	1.9	?	-3	0	-13	.	-7	i
COc1ccc(CN(C)C2CCN(C)CC2)cc1OC	-4.6	-2.1	.	13	9	0.1	0.66	-16	i
O=C(CC(Nc1ccccc1)C(=O)O)c1ccccc1 (centres undefined)	.	-8.2	4%	.	.	.	0.72	-8	.
CC(=O)Nc1ccc(S(=O)(=O)N(C)CC(=O)OCC(=O)N2CCCC2=O)cc1	1.9	-3.4	4%	0	6	-1.7	0.7	-1	i
CCC(=O)Nc1ccc2c(c1)C(=O)N(C)C[C@@H](OC)[C@@H](C)CN(C(=O)C1CCC1)[C@H](C)CO2	0.6	.	.	1	8	-2.0	.	.	i
NC(=O)C1CCN(C(=O)C2(NC(=O)Nc3cccc(F)c3)CCCCC2)CC1	-1.8	-2.7	.	4	6	-0.2	0.66	1	i
C[C@H](CO)N1C[C@H](C)[C@@H](CN(C)S(=O)(=O)c2cccs2)Oc2ccc(NC(=O)Cc3cn(C)c4ccccc34)cc2C1=O	-4.2	.	.	-8	-3	1.4	.	.	i
CO[C@@H]1CN(C)C(=O)c2ccc(NS(C)(=O)=O)cc2OC[C@H](C)NC[C@H]1C	-2.1	.	.	5	3	-0.3	.	.	i
O=C(Nc1ccccc1)c1cc(N2CCOCC2)nc2ccccc12	.	-7.7	-12%	.	.	.	0.69	-1	.

Compound profiles, as listed above. Screens in order: MLL AF4-AF9 inh	HNF4A DNA FP	Vif A3G	rRNA inh HTS	rRNA inh HTS OD600	rRNA inh HTS RFP	E coli growth	ALR inh	FGF22 binding
CO[C@H]1CN(C)C(=O)c2ccc(NC(=O)c3nc4ccccc4s3)cc2OC[C@H](C)NC[C@@H]1C as listed: 5.0	.	.	-7	-8	-0.7	.	.	i
COCC(=O)N(C)C[C@H]1Oc2cc(C#CC(C)(C)O)ccc2S(=O)(=O)N([C@H](C)CO)C[C@@H]1C as listed: -0.2	.	.	2	3	-3.6	.	.	i

Further records.
SMILES	MLL AF4-AF9 inh	HNF4A DNA FP	Vif A3G	rRNA inh HTS	rRNA inh HTS OD600	rRNA inh HTS RFP	E coli growth	ALR inh	FGF22 binding
Cc1ccc(C(=O)NC(=O)CSc2ncccc2C(=O)O)cc1	-1.2	-0.9	-8%	18	10	2.7	0.67	46	i
O=C(Nc1ccc(F)cc1)N[C@@H]1CC[C@@H](CCNS(=O)(=O)c2ccccc2F)O[C@@H]1CO	-0.8	.	.	-2	-2	-0.9	.	.	i
CCCc1c(-c2ccccc2F)ncn1Cc1ccccc1OC	0.5	-0.3	.	-33	-81	-22	.	.	i
CC(C)NC(=O)N(C)C[C@@H]1Oc2ccc(NC(=O)Nc3ccc(C(F)(F)F)cc3)cc2C(=O)N([C@@H](C)CO)C[C@H]1C	-1.5	.	.	-2	-8	0.7	.	.	i
Cc1ccccc1NC(=S)NC(=O)c1cc(-c2ccccc2)nc2ccccc12	.	-3.2	2%	.	.	.	0.75	-9	.
Cn1cc(Cc2ccccc2)c(=O)c(Cc2ccccc2)c1	-0.6	1.5	-3%	-5	-2	-6.7	.	.	i
CC(C)NC(=O)Nc1ccc2c(c1)CC(=O)N([C@H](C)CO)C[C@@H](C)[C@H](CN(C)C(=O)Nc1ccc(F)cc1)O2	-0.9	.	.	5	10	-0.8	.	.	i
O=[N+]([O-])c1ccc2c([N+](=O)[O-])ccc3c2c1CC3	2.7	-15	12µM*	-4	-3	-7.2	.	.	i
CCC(C(=O)OCC(=O)Nc1c(Cl)cc(Cl)cc1Cl)c1ccccc1 (centres undefined)	-1.5	-1.0	16%	.	.	.	0.62	8	i
O=S(=O)(NNc1ncc(C(F)(F)F)cc1Cl)c1ccc(F)cc1F	-4.0	-0.9	.	2	-1	0.8	0.71	-1	i
COc1cccc(CNC(=O)CN(C)S(=O)(=O)c2cnc[nH]2)c1	.	-1.7	1%	.	.	.	0.7	-9	.
CCCC(=O)Nc1cccc(NC(=O)c2ccc3c(c2)OCCO3)c1	.	-1.8	-3%	.	.	.	0.63	-2	.
CC(OC(=O)CCCOc1ccccc1)C(=O)NC(N)=O (centres undefined)	.	-1.0	-2%	.	.	.	0.71	0	.
COCCNc1nc(Nc2ccc(F)cc2)c2sccc2n1	-1.9	0.6	.	14	-14	-2.9	.	.	i
COc1cc(C=O)c(Br)cc1OCc1ccc(C)cc1	.	1.7	-2%	.	.	.	0.66	-2	.
Cn1c(=O)c2c(SCC(=O)NCC3CCCO3)nc(-c3ccccc3Cl)nc2n(C)c1=O (centres undefined)	-1.3	-6.0	-3%	-4	3	-4.3	0.73	-2	i
CCOC(=O)Nc1n[nH]c(NC(=O)OCC)c1[N+](=O)[O-]	-0.4	-2.8	-3%	5	16	-5.1	0.66	-15	i
CCOC(=O)C1=C(C)NC(=O)NC1c1ccc(F)cc1 (centres undefined)	-0.8	0.9	-4%	1	2	-2.1	0.7	0	i
O=C(O)C12CC3CC(C1)CC(n1ncc(NCc4ccco4)c(Cl)c1=O)(C3)C2	3.8	-1.8	10%	6	-1	-3.5	0.7	3	i
Cn1nc(C2CC2)cc1NC(=O)CC(CC(=O)O)c1ccccc1 (centres undefined)	-0.3	-0.2	6%	8	-4	-2.9	0.71	.	i
O=C(Cc1ccncc1)N1CC[C@@H]2[C@H]1c1cc(-c3ccccc3F)ccc1N[C@@H]2CO	-1.7	.	.	0	-9	0.3	.	.	i
COC(=O)c1ccc(C(=O)OC)c(NC(=O)CN2CCC(C)CC2)c1	0.5	0.3	3%	-1	-5	0.5	0.74	-1	.
CN(C)CC(=O)N[C@@H]1CC[C@@H](CCn2cc(C3CCCC3)nn2)O[C@H]1CO	-2.4	.	.	2	2	-2.3	.	.	i
CCCCn1c(SCC(=O)NCCc2ccc(OC)c(OC)c2)nc2c1c(=O)n(C)c(=O)n2C	.	-1.8	1%&3%	.	.	.	0.67	-6	.
Cc1ccc(C(=O)Nc2ccc(C(=O)O)cc2)cc1S(=O)(=O)NCc1ccccc1	-1.0	6.7	-1%	-3	-1	-2.5	0.72	.	i
Cc1nc(-c2ccc3c(c2)OCCCO3)cs1	0.0	2.3	-6%	1	5	-0.2	0.62	0	i
O=S(=O)(c1ccc(C(F)(F)F)cc1)N1CCN(CCc2ccccc2)CC1	0.4	0.5	.	-1	5	-1.4	0.7	-3	i

Quoted from the listing.
CC(C)NC(=O)N(C)C[C@@H]1Oc2ccc(NC(=O)Nc3ccc(C(F)(F)F)cc3)cc2C(=O)N([C@@H](C)CO)C[C@H]1C – MLL AF4-AF9 inh = -1.5
CCCC(=O)Nc1cccc(NC(=O)c2ccc3c(c2)OCCO3)c1 – Vif A3G = -3%
Cn1c(=O)c2c(SCC(=O)NCC3CCCO3)nc(-c3ccccc3Cl)nc2n(C)c1=O (centres undefined) – E coli growth = 0.73

2 of the compounds above, as labelled records.
structure: CCOC(=O)C1=C(C)NC(=O)NC1c1ccc(F)cc1 (centres undefined)
  MLL AF4-AF9 inh: -0.8
  HNF4A DNA FP: 0.9
  Vif A3G: -4%
  rRNA inh HTS: 1
  rRNA inh HTS OD600: 2
  rRNA inh HTS RFP: -2.1
  E coli growth: 0.7
  ALR inh: 0
  FGF22 binding: i
structure: O=C(Nc1ccc(F)cc1)N[C@@H]1CC[C@@H](CCNS(=O)(=O)c2ccccc2F)O[C@@H]1CO
  MLL AF4-AF9 inh: -0.8
  HNF4A DNA FP: .
  Vif A3G: .
  rRNA inh HTS: -2
  rRNA inh HTS OD600: -2
  rRNA inh HTS RFP: -0.9
  E coli growth: .
  ALR inh: .
  FGF22 binding: i
